KCNQ2 block: KCNQ2 potassium channel inhibitors, primary screen, cell-based, CHO-K1, FluxOR thallium flux, B-score (AID 2156); 20 min; hits give low values; only compounds with negative scores are shown here; some inactives read as strong as hits; O88943; 310,000 compounds, 1.1% hits; B-score at 10 µM;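 active means fluorescence ratio B-score at most minus 3 library SDs, with starting brightness B-score within 2 library SDs, cut at about -5.5 in these data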
Target sequence (O88943 whole entry, looked up): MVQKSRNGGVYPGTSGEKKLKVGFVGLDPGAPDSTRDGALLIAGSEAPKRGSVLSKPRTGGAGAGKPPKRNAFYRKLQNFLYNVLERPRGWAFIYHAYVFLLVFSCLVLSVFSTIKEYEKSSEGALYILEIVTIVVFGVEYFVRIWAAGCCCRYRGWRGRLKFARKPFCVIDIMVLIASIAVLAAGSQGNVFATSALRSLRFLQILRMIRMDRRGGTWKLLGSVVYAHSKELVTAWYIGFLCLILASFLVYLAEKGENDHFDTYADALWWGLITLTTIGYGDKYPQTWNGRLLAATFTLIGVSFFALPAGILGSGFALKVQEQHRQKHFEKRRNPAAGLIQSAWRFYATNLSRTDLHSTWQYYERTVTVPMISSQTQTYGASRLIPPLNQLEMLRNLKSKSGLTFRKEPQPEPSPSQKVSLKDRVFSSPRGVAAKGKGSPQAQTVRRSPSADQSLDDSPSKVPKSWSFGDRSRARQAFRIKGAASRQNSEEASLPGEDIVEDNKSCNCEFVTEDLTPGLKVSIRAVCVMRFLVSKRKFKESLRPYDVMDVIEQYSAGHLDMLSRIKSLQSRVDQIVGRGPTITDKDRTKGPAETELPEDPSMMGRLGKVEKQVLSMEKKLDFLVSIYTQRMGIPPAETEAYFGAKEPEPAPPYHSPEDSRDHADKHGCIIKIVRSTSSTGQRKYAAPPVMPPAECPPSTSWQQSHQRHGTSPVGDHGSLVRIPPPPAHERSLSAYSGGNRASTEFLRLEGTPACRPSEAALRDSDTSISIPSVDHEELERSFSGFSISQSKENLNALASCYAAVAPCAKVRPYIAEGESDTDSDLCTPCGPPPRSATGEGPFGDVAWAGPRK
KCNQ2 block baseline: recorded beside KCNQ2 block, whose call it bears; B-score; measured here: initial fluorescence intensity artifact check;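 brightness before thallium and not channel activity; 0 = typical well and far values either way flag optical interference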
* marks the source's active call; other numbers are inactive results; i = inactive. An excerpt; rates above refer to the full screens.

KCNQ2 block	KCNQ2 block baseline	SMILES
i	-0.68	C=C1CCc2c([nH]c3ccc(OCC(C)C)cc23)C1=O
i	0.33	C=CCOC(=O)C1=C[C@@H](c2ccc(C(F)(F)F)cc2)[C@H](CCCO)[C@@H](OCC)O1
i	-0.83	O=C1CS/C(=N/N=C/c2ccccc2OS(=O)(=O)c2ccccc2)N1
i	0.35	O=C(Nc1nccs1)c1ccc(Br)c(S(=O)(=O)N2CCOCC2)c1
i	1.3	O=C(NCCCCNC(=O)c1ccc(Br)cc1)c1ccc(Br)cc1
i	-0.48	COc1ccc(Br)cc1/C=N/N1CCN(Cc2ccccc2)CC1
i	-1.5	O=C(c1cc([N+](=O)[O-])ccc1Cl)N1CCN(Cc2ccccc2)CC1
i	0.23	COC(=O)C1C(=O)c2c([nH]c(C(=O)OCC3CCCO3)c2C)CC1C (configuration not stated)
i	0.72	CC1=C(OC(=O)c2ccc(Br)cc2)C(C)(C)C(c2ccccc2)OC1=O (configuration not stated)
i	-1	O=C(NNc1cccc(Cl)n1)c1cccnc1Cl
i	2	COCCn1c(-c2ccc(Br)cc2)csc1=Nc1cccnc1
i	-1.1	Cc1nc2nc(SCC(=O)NCCCN3CCCCCC3)nn2c(C)c1Cc1ccccc1
i	-0.01	COCCNC(=O)C(c1ccc(C)o1)N(C(=O)c1snc(C(N)=O)c1N)c1cc(C)cc(C)c1 (configuration not stated)
i	-0.1	CCOC(=O)CC(=O)CSc1nc2ccccc2c(=O)n1-c1ccc(C(=O)N2CCOCC2)cc1
i	-0.92	O=S(=O)(NCC1CCCO1)c1cccc(S(=O)(=O)N2CCCC2)c1 (configuration not stated)
i	1.1	Cc1ccc(C(=O)C(SC(C)(C)C)n2cncn2)cc1 (configuration not stated)
i	2.3	COc1ccc(S(=O)(=O)N2CCN(C3CCCC(C)C3)CC2)cc1 (configuration not stated)
i	2.2	COCCNC(=O)c1cc2nc3c(c(C(F)(F)F)n2n1)CCc1ccccc1-3
i	0.07	CC(C)(C)NS(=O)(=O)c1ccc(N2C(=O)c3ccccc3C2=O)cc1
i	0.92	Cc1cc(C)n(-c2ccc(C(=O)OCC(=O)c3c(N)n(C)c(=O)n(C)c3=O)cc2)n1
i	1.1	Cc1cc(/C=C2\C(=N)N3N=C(CC(=O)N4CCOCC4)SC3=NC2=O)c(C)n1Cc1ccccc1
i	0.35	CCc1ccccc1NC(=O)c1cccs1
i	0.08	COC(=O)Cn1c(N2CCCC2)nc2c1c(=O)n(C)c(=O)n2C
i	2.8	C=CCC(C)(NCc1ccccc1)c1ccc(C)cc1 (configuration not stated)
i	0.23	COc1ccc(OC)c(C(c2nnnn2CCC(C)C)N2CCN(C(=O)c3ccco3)CC2)c1 (configuration not stated)

3 compounds drawn at random from those above:
KCNQ2 block	KCNQ2 block baseline	SMILES
i	0.72	CC1=C(OC(=O)c2ccc(Br)cc2)C(C)(C)C(c2ccccc2)OC1=O (configuration not stated)
i	2.2	COCCNC(=O)c1cc2nc3c(c(C(F)(F)F)n2n1)CCc1ccccc1-3
i	0.35	CCc1ccccc1NC(=O)c1cccs1

Next section
KCNQ2 block	KCNQ2 block baseline	SMILES
i	-0.05	COc1ccc(C(C(=O)NC2CCCCC2)N(C(=O)c2sc(C)nc2C)c2ccc(OC)cc2)cc1 (configuration not stated)
i	0.64	O=C(CS(=O)(=O)Cc1ccccc1)Nc1ccc(S(=O)(=O)N2CCCCCC2)cc1
i	-0.92	Cc1cccc(NC(=O)c2oc3ccc(S(=O)(=O)N4CCOCC4)cc3c2C)c1C
i	0.17	Cc1ccc(CN2CCC(N3CC(C)OC(C)C3)CC2)cc1 (configuration not stated)
i	-1	Cc1ccccc1-n1cnc2cc(NCc3cccs3)ccc21
i	2.6	CC(=O)Nc1ccc(N2CCN(c3ccc(F)cc3)CC2)cc1
i	0.08	O=S(=O)(NCCN1CCOCC1)c1ccc2c(c1)OCCO2
i	-0.68	O=S(=O)(c1ccc(Cl)cc1)N1CCN(C2CCCCCC2)CC1
i	-0.39	O=C(OC1CCOC1=O)c1ccc2ccccc2n1 (configuration not stated)
i	1.1	COc1ccc(Cc2nc3ccccc3[nH]2)cc1OC
i	2	CCS(=O)(=O)N1CCC(NC(C)=O)(c2ccccc2)CC1
i	-0.21	Cc1cc(C)n(CCNC(=O)C2CCC(=O)N(CCc3cccc(F)c3)C2)n1 (configuration not stated)
i	-0.32	Cc1cccc(NC(=S)NC(=O)C2CC2)c1
i	0.62	CCC(=O)Nc1ccccc1C(=O)OCc1ccc(C(=O)c2ccccc2)cc1
i	1.2	CN(C(=O)c1ccc(OC2CCN(CCc3ccccc3)CC2)cc1)C1CCOCC1
i	1.1	C[C@H](NC(=O)c1nc[nH]c1C(=O)NCCCCCNC(=O)OC(C)(C)C)C(=O)OCc1ccccc1
i	0.46	N#Cc1nc(-c2ccco2)oc1N1CCOCC1
i	0.31	Cc1ccccc1C(=O)NNc1ccc([N+](=O)[O-])cc1
i	0.79	CC(=O)c1ccc2c3c(ccc(O)c13)CC2
i	0.85	CC(=O)Nc1ccc(OCCOc2ccc(/C=C3\C(=N)N4N=C(C)SC4=NC3=O)cc2)cc1
i	-1	CCC(CC)COC(=O)C1=C(C)NC(=O)NC1c1ccccc1Br (configuration not stated)
i	-0.02	COc1cccc(-c2nc(CS(=O)(=O)CC(=O)N3CCc4ccccc43)c(C)o2)c1
i	-0.48	CCCC1Nc2ccc(C(=O)O)cc2C2C=CCC12 (configuration not stated)
i	2	O=C(O)COc1ccc2c(-c3ccccc3)cc(=O)oc2c1
i	-0.11	O=C(NCNC(=O)c1ccccc1)c1ccccc1

KCNQ2 block	KCNQ2 block baseline	SMILES
i	-0.85	O=C(NC(=S)NNC(=O)c1ccccc1O)c1cccnc1
i	0.82	CN=C(Nc1cc(C)nn1-c1ccccc1)c1ccc(F)cc1
i	-1.2	O=C(Cn1cc2c(n1)CCCCC2)NC1CCCCCC1
i	0.14	CC(C)CN(c1ccccc1)S(=O)(=O)c1nnc(NC(=O)c2ccco2)s1
i	-1.4	CC(Oc1cccc(Cl)c1)C(=O)NCCCCc1ccccc1 (configuration not stated)
i	-0.68	Cc1cc(C(=O)OCC(=O)NC(=O)c2cccn2C)c2ccccc2n1
i	-0.22	O=C(C1CCCN(Cc2ccccc2F)C1)N1CCc2ccccc2C1 (configuration not stated)
i	-0.96	C/C(N)=C(/C#N)C(=O)CSc1nc(-c2ccccc2)c(-c2ccccc2)o1
i	-0.34	Cc1ccc(C(=O)c2cc([N+](=O)[O-])ccc2N2CCCCC2)cc1
i	-2.5	O=C(Nc1ccccc1N1CCCC1)c1cccc(Cl)c1Cl
i	0.09	O=C(COC(=O)C1CCN(S(=O)(=O)c2cccs2)CC1)NCc1ccccc1
i	-2.1	COc1ccc(-c2cc(C(=O)N3CCN(C(c4ccccc4)c4ccccc4)CC3)no2)cc1OC
i	0.06	O=C1C2C3c4ccccc4C(c4ccccc43)C2C(=O)N1c1ccncc1 (configuration not stated)
-8.5*	-0.86*	CCCCCCCOC1(c2ccccc2)OC(=O)c2ccccc21 (configuration not stated)
i	0.82	Cc1ccc(CNC(=O)c2ccc(C#CC(C)(C)O)s2)cc1
i	0.21	COc1cc(C)nc(N2CCC(C(N)=O)CC2)n1
i	0.01	CC(=O)c1cccc(NC(=S)N2CCN(S(C)(=O)=O)CC2)c1
i	-0.72	CN(C)c1ccc(C(=O)OCC(=O)Nc2ccc(S(N)(=O)=O)cc2)cc1
i	1.3	CCC(CC)C(=O)Nc1nnc(-c2cccs2)s1
i	0.65	C/C(=N\NC(=O)c1cc(-c2ccco2)nc2ccccc12)c1cccnc1
i	-1.4	CCOCCCNC(=O)c1cn(CC)c2ccc(S(=O)(=O)N(C)C3CCCCC3)cc2c1=O
i	0.09	Cc1ccc(C)c(OCc2ccc(C(=O)NN)o2)c1
i	-0.47	CC(=O)c1ccc(NC2CC(O)C(O)CO2)cc1 (configuration not stated)
i	0.39	O=c1[nH]c2ccccc2nc1/C=C/c1ccc(F)cc1
i	-0.05	COc1ccc(N2CC(C(=O)NC3CC(C)(C)NC(C)(C)C3)CC2=O)cc1 (configuration not stated)

KCNQ2 block	KCNQ2 block baseline	SMILES
i	1.3	CCOc1ccc(C(=O)Nc2cc(OC)ccc2OC)cc1
i	-0.87	CCCN1C(=O)/C(=C/c2ccncc2)SC1=S
i	0.41	CCOc1cc(-c2cc(-c3ccc(C)o3)nc(N)c2C#N)ccc1O
i	0.02	CC(NC(=O)[C@H](C)N1C(=O)N2CCc3c([nH]c4ccccc34)[C@@]2(C)C1=O)c1ccccc1 (some centres not stated)
i	1	O=C(NC1CCCCCC1)c1c(O)nc2sccn2c1=O
i	-0.32	COc1ccc(NC(=O)C2=C(C)C(=O)OC23CCC(C)CC3)cc1Cl (configuration not stated)
i	-0.19	Cc1sc2nc(SCC(=O)N3CCN(CCO)CC3)n(-c3ccccc3)c(=O)c2c1C
i	-2.2	COc1cc(C(=O)N(CCc2ccccc2)C2=CC3CCC(C2)N3C)cc(OC)c1OC (configuration not stated)
i	-1.7	Cc1ccc(NC(=O)c2cn(CCC#N)nc2-c2cccs2)c([N+](=O)[O-])c1
i	1.5	O=C(Nc1ccccc1[N+](=O)[O-])c1ccc(S(=O)(=O)N2CCCC2)cc1
i	0.15	O=C(CCCCCBr)N1CCC(CC2CC(c3cccc(Br)c3)=NO2)(C(=O)NCC2CCCCC2)CC1 (configuration not stated)
i	-0.72	Cc1oc2c(C)c(O)ccc2c(=O)c1-c1nncn1-c1ccccc1
i	1.1	COC(=O)c1sc(Nc2ccccc2)nc1C
i	-0.26	CC(C(=O)NC1CCCC1)N1CCN(Cc2ccccc2)CC1 (configuration not stated)
i	0.18	CN1CCN(c2ccccc2NC(=O)c2cc3c(s2)-c2ccccc2OC3)CC1
i	-0.34	Cn1nnc2cc(C(=O)N3CCN(c4ccccc4)CC3)ccc21
i	0.12	Cc1c(NC(=O)C(C)OC(=O)c2cccc([N+](=O)[O-])c2)c(=O)n(-c2ccccc2)n1C (configuration not stated)
i	-1.2	COC(=O)c1c(NC(=O)CSc2nnnn2-c2ccccc2)sc2c1CCC(C(C)(C)C)C2 (configuration not stated)
i	-0.19	CCC(=O)c1ccc(OCC(=O)OCC(=O)N2CCN(c3ccc(OC)cc3)CC2)cc1
-6.2*	0.19*	O=[N+]([O-])c1cc(Cl)ccc1N1CCN(c2cccc(C(F)(F)F)c2)CC1
i	-0.07	CN(C)S(=O)(=O)c1ccc(NC(=O)COc2ncnc3c2cnn3-c2ccccc2)cc1
i	1.1	CCN(Cc1ccccc1)S(=O)(=O)c1ccc(C(=O)N2CCN(c3nc4ccccc4s3)CC2)cc1
i	-0.05	COc1ccc(CCNC(=S)N2CCN(S(=O)(=O)c3ccccc3)CC2)cc1
i	1.6	COc1cc(NC(=O)c2ccccc2)ccc1NC(=O)c1cc2ccccc2o1
i	1	Cc1ccc2[nH]c(=O)c(CN(CCO)Cc3nnnn3CCc3ccccc3)cc2c1

Entries above containing an aryl thioether with sulfur outside any ring (5):
KCNQ2 block	KCNQ2 block baseline	SMILES
i	-1.1	Cc1nc2nc(SCC(=O)NCCCN3CCCCCC3)nn2c(C)c1Cc1ccccc1
i	-0.1	CCOC(=O)CC(=O)CSc1nc2ccccc2c(=O)n1-c1ccc(C(=O)N2CCOCC2)cc1
i	-0.96	C/C(N)=C(/C#N)C(=O)CSc1nc(-c2ccccc2)c(-c2ccccc2)o1
i	-0.19	Cc1sc2nc(SCC(=O)N3CCN(CCO)CC3)n(-c3ccccc3)c(=O)c2c1C
i	-1.2	COC(=O)c1c(NC(=O)CSc2nnnn2-c2ccccc2)sc2c1CCC(C(C)(C)C)C2 (configuration not stated)

Next results follow:
KCNQ2 block	KCNQ2 block baseline	SMILES
i	-1.9	Cc1ccc(NC(=O)CCCSc2ccccc2)cc1S(=O)(=O)N1CCOCC1
i	-1.2	COc1ccc(/C=N/NC(=O)Cn2cnc3c2c(=O)n(C)c(=O)n3C)c(OC)c1OC
i	-1	CNS(=O)(=O)c1cccc(C(=O)OCC(=O)c2cc(C)n(-c3ccc4c(c3)OCO4)c2C)c1
i	-0.25	COc1ccc(C(=O)N2CCN(CCCc3ccccc3)CC2)cc1OC
i	0.83	Cc1ccc2oc(-c3ccccc3)c(C(=O)O)c(=O)c2c1
i	-1	Cc1cc(OCC(=O)N(C(C)C)C(C)C)ccc1Cl
i	0.21	Cc1ccc2cc(CNC(C)C)c(=O)[nH]c2c1
i	-0.83	COc1cccc(CN(C)C(=O)CCN(c2ccccc2)S(=O)(=O)c2ccc(C)cc2)c1OC
i	-0.96	CC(=O)Nc1ncnc2c1c(-c1ccc(Cl)cc1)nn2C(C)(C)C
i	2.1	CN[C@H]1CCc2cc(OC)c(OC)c(OC)c2-c2ccc(OC)c(=O)cc21
i	-2.2	O=C(C1=C[C@H](c2coc3ccccc3c2=O)C[C@H](OCc2ccc(CO)cc2)O1)N1CCN(Cc2ccc3c(c2)OCO3)CC1
i	-1.1	CCc1nnc(NC(=O)CCC(=O)N2CCN(S(=O)(=O)c3cc(Cl)ccc3OC)CC2)s1
i	2.8	CCCS(=O)(=O)N1CCN(Cc2c[nH]c3ccccc23)CC1
i	-0.98	Cc1ccc(Cn2ncc3c(N4CCN(CCc5ccccc5)CC4)ncnc32)cc1
i	0.09	CC(C)n1nnnc1SCC(=O)Nc1cccc(F)c1
i	2.1	CCCCCC1CC(CC(=O)Nc2ccc([N+](=O)[O-])cc2)C(=O)O1 (configuration not stated)
i	-0.72	Cc1cc(C(=O)CN2C(=O)NC(C)(c3cccc(Br)c3)C2=O)c(C)n1Cc1ccco1 (configuration not stated)
i	1.3	Cc1ccc(/C(=N\S(=O)(=O)c2ccc(Br)cc2)Nc2ccccc2C)cc1

Copied from above for reference:
KCNQ2 block	KCNQ2 block baseline	SMILES
i	-0.68	C=C1CCc2c([nH]c3ccc(OCC(C)C)cc23)C1=O
i	0.33	C=CCOC(=O)C1=C[C@@H](c2ccc(C(F)(F)F)cc2)[C@H](CCCO)[C@@H](OCC)O1
i	-0.83	O=C1CS/C(=N/N=C/c2ccccc2OS(=O)(=O)c2ccccc2)N1
